Compound activity as filed in PubChem.
Calb biofilm kill – mixtures killing C. albicans biofilm; C. albicans biofilm persisters + clotrimazole, fluorescence viability; primary screen in compound mixtures of four per well; inhibition, % at 7.6 µM; actives 0.02% (n = 120,000);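 active = inhibition above 30.3% in the primary screen of four-compound pools, then above 30% when the compound was retested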;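 also: compounds exposed to preformed 24 h biofilms for 48 h; the number belongs to the whole pool; some results filed as inactive read as strong as hits; inactives centre near 12; 0% = biofilm with clotrimazole alone and 100% = kill control; retested singly at about 60 µM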
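Probe or stimulus – Clotrimazole 50 µg/mL co-treatment · System – C. albicans biofilms · Schedule – 24 h biofilm formation, then 48 h compound exposure, 37 °C · Evaluation – percent inhibition of biofilm viability · Technique – 2-h Alamar Blue fluorescence, 535/590 nm excitation/emission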
An asterisk follows results filed as active. An excerpt; rates above refer to the full screens.

SMILES | Calb biofilm kill
CN(C)CCNC(=O)COc1ccc(Cl)cc1Cl | 4
COc1ccc(S(=O)(=O)Nc2ccccc2C(=O)N2CCCC2)cc1OC | 10
CCOC(=O)c1ccc2c(c1)n(CC)c(C)[n+]2CC | 17
Cc1ccc(C(=O)N2N=C(c3ccccc3)CC2(O)C(F)(F)F)o1 (stereo unspecified) | -3
CSC(=CC(=O)c1ccc(F)cc1)SC | 14
COc1cccc(/C=C2\SC(=S)N(CC3CCCO3)C2=O)c1 (stereo unspecified) | 12
Cc1ccc(Nc2nc(N)nc(CN3CCC(C)CC3)n2)c(C)c1 | 20
O=C(C1CCN(S(=O)(=O)N2CCC3(CC2)OCCO3)CC1)N1CCCCC1 | 15
COc1ccccc1-c1nc(SCC(=O)N(C)c2ccccc2)c2c(=O)n(C)c(=O)n(C)c2n1 | 13
Fc1ccc(NC(=S)Nc2ccccc2N2CCOCC2)cc1Cl | 1
Clc1cccc(OCCCN2CCCC2)c1Cl | 15
Cc1onc(-c2ccccc2)c1C(=O)NNC(=S)NC(=O)c1ccc(F)cc1 | 4
COc1ccc(Cn2c(=O)c3cccnc3n(Cc3ccc([N+](=O)[O-])cc3)c2=O)cc1 | 2
CC12CCC(C(=O)NCc3ccccc3Cl)(CC1=O)C2(C)C (stereo unspecified) | 18
COc1cc2[nH]c(=S)n(C3CC3)c(=O)c2cc1OC | 4
CCOc1ccc(C2C(C(C)=O)=C(O)C(=O)N2CCc2c[nH]c3ccccc23)cc1 (stereo unspecified) | 24
CN(CCOc1ccccc1)CC(=O)Nc1cccc(Br)c1 | 7
COc1ccc(N2CCN(C(=O)c3ccccc3)CC2)c([N+](=O)[O-])c1 | 5
CCOC(=O)CSc1nc(=O)n2cc(C)ccc2n1 | 7
N/C(Cc1nc(-c2ccc(Cl)cc2)cs1)=N/O | 19
Cc1cs/c(=N\N=C2CCCCC2)n1Cc1ccco1 | 7
CCOC(=O)N/N=C(\C)c1ccc(-n2cnnn2)cc1 | 18
CCN(CC)CCC(c1ccc2c(c1)OCO2)c1c(OC)cc(OC)c2ccc(=O)oc12 (stereo unspecified) | 12
CCCCNC(=O)NNC(=O)c1ccco1 | 3
Cc1ccc(NC(=O)c2csnn2)c(C)c1 | -8
COc1ccccc1NC(=O)N(Cc1cccs1)Cc1cc2cc3c(cc2[nH]c1=O)OCO3 | 6
CNC(=O)n1cc(C)c(-c2cccs2)n1 | 16
CCCOC(=O)c1[nH]c2c(c1C)C(=O)CC(c1ccc(OC)c(OC)c1)C2 (stereo unspecified) | 11
CSc1ccccc1NC(=S)N/N=C/c1cccn1Cc1ccc(F)cc1 | 9
O=C(COC(=O)/C=C/c1ccc(S(=O)(=O)N2CCOCC2)cc1)NCc1ccc2c(c1)OCO2 | 14

Part of the list above, set out differently:
| canonical_smiles | Calb biofilm kill |
| --- | --- |
| CCOC(=O)CSc1nc(=O)n2cc(C)ccc2n1 | 7 |
| CCCOC(=O)c1[nH]c2c(c1C)C(=O)CC(c1ccc(OC)c(OC)c1)C2 (stereo unspecified) | 11 |
| CCN(CC)CCC(c1ccc2c(c1)OCO2)c1c(OC)cc(OC)c2ccc(=O)oc12 (stereo unspecified) | 12 |
| CNC(=O)n1cc(C)c(-c2cccs2)n1 | 16 |
| CCOC(=O)N/N=C(\C)c1ccc(-n2cnnn2)cc1 | 18 |

Following part.
SMILES | Calb biofilm kill
COC(=O)CNC(=O)C1(C)C=CCN1C(=O)c1ccccc1 (stereo unspecified) | 8
Cn1c(=O)c2cc(S(=O)(=O)Nc3cc(C(=O)O)cc(C(=O)O)c3)ccc2n(C)c1=O | 5
O=C(COC(=O)c1cc(=O)[nH]c2ccccc12)Nc1nc(-c2ccccc2)cs1 | 15
Cc1ccc(-n2c3nc(=O)n(C)c(=O)c-3cc3ccccc32)cc1 | 4
Cc1ccc(C)c(SCC(=O)c2ccc[nH]2)c1 | 17
Cc1ccc(C(O)P(=O)(OC(C)C)c2ccc(N(C)C)cc2)cc1 (stereo unspecified) | 26
CC(C)Cc1nnc(NC(=O)Cc2cccs2)s1 | 28
Cn1nc(C(F)(F)F)cc1C(=O)O | 24
CC(C)NC(=S)NNc1nc2ccccc2s1 | 5
O=C1CN(c2nc(-c3cccnc3)nc3scc(-c4ccccc4)c23)CCN1 | 19
CC1(C)CC(=O)C(C(=O)c2ccccc2)C(=O)C1 | 17
O=C(CCl)Nc1cccc(CP(=O)(c2ccccc2)c2ccccc2)c1 | 18
Cc1cc(/C=C2\SC(=S)NC2=O)c(C)n1-c1cccc(O)c1 | 22
COc1cc(CNCc2ccc(SC)cc2)cc(OC)c1 | -3
CCN(CC)CCN(Cc1cc2cc3c(cc2[nH]c1=O)OCO3)C(=S)NCc1ccco1 | 13
COc1ccccc1NCC(=O)Nc1cc(S(=O)(=O)N2CCOCC2)ccc1N1CCOCC1 | 13
COc1cccc(C2/C(=C(/O)c3ccccc3)C(=O)C(=O)N2Cc2ccco2)c1 (stereo unspecified) | 14
Cc1ccc2c(c1)C=CC(C)(C)S2(=O)=O | 3
Cc1cc(NC(=S)NC(=O)c2ccccc2)ccc1-c1cc2ccccc2oc1=O | 12
COc1ccc(S(=O)(=O)N(CCc2ccccc2)CC(N)=O)cc1 | 3
COc1ccc(-c2[nH]ncc2CN2CCC(N3CCSCC3)CC2)cc1F | 12
CC1(c2ccc(OC(F)F)cc2)NC(=O)N(CC(=O)Nc2cccc(S(N)(=O)=O)c2)C1=O (stereo unspecified) | 13
CSC(=S)N/N=C/c1ccccc1 | 7
CCCCOCCCNC(=O)c1ccc([N+](=O)[O-])c(C)c1 | 8
CCc1ccc(NC(=O)CC2C(=O)NCCN2C(=S)Nc2ccccc2)cc1 (stereo unspecified) | 14
COc1cccc(CN=c2c([N+](=O)[O-])nn(-c3ccccc3C)n2O)c1 | 14
O=C1NC(=S)S/C1=C\c1coc2ccccc2c1=O | 27
COc1ccc2c(c1)S(=O)(=O)c1ccccc1N2 | 21
CCOc1ccc(CCNC(=O)Cn2ccc3ccccc3c2=O)cc1OCC | 15
COc1cc(C2NC(=O)NC(C)=C2C(=O)OC(C)C)ccc1OC(=O)c1ccco1 (stereo unspecified) | 12
O=C(Nc1ncn[nH]1)c1cc(S(=O)(=O)Nc2cccc(C(F)(F)F)c2)ccc1Cl | 17
Cc1csc(NC(=O)CS(=O)(=O)Cc2ccccc2)n1 | 9
Nc1nc(SCC(=O)Nc2ccccc2)[nH]c(=O)c1NC(=O)c1cccs1 | 5
Cc1nc2ccccc2c2c1CC(C(C)(Cl)Br)O2 (stereo unspecified) | 26
COC(=O)c1cnc(Oc2ccc(NC(=O)NC(=O)c3c(F)cccc3Cl)cc2)cc1C(F)(F)F | 6
CCCCNC(=O)CNC(=S)N(Cc1ccccc1)Cc1cccnc1 | 8
O=C1CN(/N=C/c2ccc([N+](=O)[O-])o2)C(=O)N1 | 14
O=C(Nc1cccnc1)OC1CCCCC1 | 9
c1ccc2[nH]c(SCc3cn4cccnc4n3)nc2c1 | 21
CC1CCN(C(=O)c2ccc(S(=O)(=O)Cc3ccccc3F)c([N+](=O)[O-])c2)CC1 | 17
COC(=O)c1sc(SC)c(S(=O)(=O)C(C)C)c1N | 14
CCCCOc1ccc(C(=O)Nn2c(-c3cccs3)nc3ccccc3c2=O)cc1 | 18
CC(C)NC(=O)NC(=O)COC(=O)/C=C/c1ccccc1[N+](=O)[O-] | 6
COc1ccc2cc(C(=O)Nc3ccc(Cl)cc3)sc(=O)c2c1OC | 12
O=C1COc2ccc(C(=O)COC(=O)Cc3ccsc3)cc2N1 | 8
COc1ccc(Cc2nc(-c3cccs3)no2)cc1 | -5
CC(=O)c1ccc(N2CCN(C(=O)c3ccc4nc[nH]c4c3)CC2)cc1 | 13
O=C(N/N=C/c1cccc([N+](=O)[O-])c1)C1CC(=O)N(c2ccc(F)cc2)C1 (stereo unspecified) | 12
CCO[C@@H]1OC(C(=O)N2CCN(C)CC2)=C[C@H](c2csc3ccccc23)[C@H]1CCCO | 13
CN(Cc1ncc[nH]1)C(=O)CC1C(=O)NCCN1Cc1c(F)cccc1Cl (stereo unspecified) | 6
OCCC1CN(Cc2ccc(Oc3ncccn3)cc2)CCN1Cc1ccc(F)c(F)c1 (stereo unspecified) | 27
COc1ccc(N=C(c2ccccc2)c2c(C)[nH]n(-c3ccccc3)c2=O)c(OC)c1 | 26
COc1ccc(NC(=O)C(CCSC)NC(N)=O)cc1NS(=O)(=O)c1ccc(F)cc1 (stereo unspecified) | 9
CCCn1c(N)c(C(=O)CSc2nc3ccccc3s2)c(=O)[nH]c1=O | 13
CC(C)C[C@H](N)c1cn([C@@H](Cc2ccc(O)cc2)C(=O)N2CCNCC2)nn1 | 15
Cc1c(NC(=O)c2nn3c(C(F)(F)F)cc(-c4ccccc4)nc3c2Cl)c(=O)n(-c2ccccc2)n1C | -14
CSc1nnc(C)c(=O)n1COC(=O)c1ccc(S(=O)(=O)N2CCOCC2)cc1 | -10
O=C(O)CCCNS(=O)(=O)c1ccccc1 | 8
O=S(=O)(Nc1ccccn1)c1ccc(Cl)c2ccccc12 | 3
CC(C)C(NC(=O)C(NC(=O)C1O[C@@H]2OC(C)(C)O[C@@H]2[C@H]2OC(C)(C)O[C@@H]12)C(C)C)C(=O)O (stereo partly specified) | 13

Given with each value named: 4 of the compounds above.
Cc1c(NC(=O)c2nn3c(C(F)(F)F)cc(-c4ccccc4)nc3c2Cl)c(=O)n(-c2ccccc2)n1C
  Calb biofilm kill: -14
CSc1nnc(C)c(=O)n1COC(=O)c1ccc(S(=O)(=O)N2CCOCC2)cc1
  Calb biofilm kill: -10
O=C(O)CCCNS(=O)(=O)c1ccccc1
  Calb biofilm kill: 8
O=S(=O)(Nc1ccccn1)c1ccc(Cl)c2ccccc12
  Calb biofilm kill: 3

Later entries:
SMILES | Calb biofilm kill
COc1cc2c3c(c1)/C(=C1/SC(=S)NC1=O)C(=O)N3C(C)(C)C=C2C | 14
CN(C)c1nc(N/N=C/c2ccccc2O)nc(Nc2ccc(F)cc2)n1 | 12
O=C(COC(=O)CSc1ccc2ccccc2c1)NCc1ccc2c(c1)OCO2 | 11
Cc1csc(N(C(=O)c2ccccc2F)c2ccccc2)n1 | 9
COc1ccc(-c2nn(-c3ccccc3)cc2/C=C\C(=O)N2CCOCC2)cc1[N+](=O)[O-] | 5
O=C(N/N=C/c1ccco1)c1ccccc1OCc1ccc(Br)cc1 | 18
O=C(CN1CCOCC1)NNc1nc(-c2ccccc2)c2cc(Br)ccc2n1 | 13
Cc1ccccc1C(=O)N/N=C/c1ccccn1 | 11
COc1cc(NC(=O)c2ccnnc2)cc(C(=O)Nc2cccc(C(F)(F)F)c2)c1 | 11
COc1ccccc1N1CCN(C(=O)c2ccc3c(Cl)c4c(nc3c2)CCCC4)CC1 | 9
Cc1[nH]c2ccccc2c1/C=C/c1nc2ccccc2c(=O)n1-c1ccc([N+](=O)[O-])cc1 | 4
CCn1cc(C(=O)NCCCN2CCCC2)c(=O)c2cc(S(=O)(=O)N3CCc4ccccc4C3)ccc21 | 13
COc1ccc(NS(=O)(=O)c2cccs2)cn1 | 16
Cc1[nH]c2ccccc2c1/C=N/NC(=O)c1cc(C(C)(C)C)[nH]n1 | 21
Cc1cc(C)cc(NS(=O)(=O)c2cc(C(=O)NCc3ccccn3)ccc2Cl)c1 | 10

A different layout for two compounds above.
CN(C)c1nc(N/N=C/c2ccccc2O)nc(Nc2ccc(F)cc2)n1
  Calb biofilm kill: 12

COc1ccc(-c2nn(-c3ccccc3)cc2/C=C\C(=O)N2CCOCC2)cc1[N+](=O)[O-]
  Calb biofilm kill: 5

Following part.
SMILES | Calb biofilm kill
NS(=O)(=O)c1cc(C(=O)OCC(=O)Nc2ccc(Cl)cc2[N+](=O)[O-])ccc1Cl | 3
N#CC(c1ccc(O)cc1)c1ncc(C(F)(F)F)cc1Cl (stereo unspecified) | 11
Cc1nnc2sc(SCc3ccc(Cl)cc3)nn2c1=O | 9
CC(C)N1CCC2(CC1)C(C#N)=C(N)NC(S)=C2C#N | 2
COc1ccc(CCNC(=O)COc2ncnc3ccccc23)cc1 | 17
COc1ccc(C(C(=O)Nc2ccc(C(C)C)cc2)N(C)C(=O)c2ccc(=O)[nH]c2)cc1 (stereo unspecified) | 22
CC(C)(C)C(=O)O/N=C(\N)c1ccc([N+](=O)[O-])s1 | 19
CC1=C(C(=O)c2ccccc2)C(c2ccc(N3CCOCC3)cc2)NC(=O)N1 (stereo unspecified) | 14
CC(C)OC(=O)c1ccc(COC(=O)c2cnccn2)cc1 | 10
Nc1ncnc(Sc2ncccn2)c1[N+](=O)[O-] | 16
CCn1c(=O)c(C(=O)CN2CCc3ccccc32)c(N)n(Cc2ccccc2)c1=O | 8
CCSc1n[nH]c2nc3c(c(=O)n12)C1(CCCCC1)Cc1ccccc1-3 | 22
Nc1cc(C(=O)O)c(Oc2ccc(Cl)cc2Cl)cc1C(=O)O | 14
O=C(O)CC1(CC(=O)Nc2cc3ccccc3cn2)CCCCC1 | 19
CCCCNC(=O)CN(c1cc(C(F)(F)F)ccc1Cl)S(C)(=O)=O | 9
C/C(=N\NC(=O)CC(C)C)c1c(C(F)(F)F)[nH]n(-c2nc3ccccc3s2)c1=O | 30
COc1cc(C(=O)OCC(=O)NC(=O)C2CCCCC2)ccc1OC(F)F | 8
O=[N+]([O-])c1ccc(CN2C=NS(=O)(=O)c3ccccc32)cc1 | 8
O=C(Nc1ncc(Cc2ccccc2Cl)s1)C1=NCCN1 | 23
CCOc1ccc(N=Nc2c(=O)[nH]n3c(C)cc(C)nc23)cc1 | 12
CCN(CC)S(=O)(=O)c1cc(NC(=O)C(C)N(C)CC(=O)Nc2c(C)cccc2C)ccc1C (stereo unspecified) | 20
O=[N+]([O-])c1nn(-c2ccccc2)[n+]([O-])c1N1CCN(c2ccccc2F)CC1 | 21
Cc1nc2sc(C(c3ccco3)N3CCOCC3)c(O)n2n1 (stereo unspecified) | 8
